# Screens (PubChem)
# PrP 5UTR inh – inhibition of PrP 5' UTR reporter expression | cell-based PrP 5' UTR mRNA reporter, plate reader | actives 0.35% (n = 340,000) | AID 488862 | inhibition, % (concentration not given with the values);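 active means every replicate at 50% or more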;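 further: 0 = median of the neutral control wells; tested in H4 reporter cells; numbers are from one replicate; inactives centre near -14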
# Bead autofluor – flagged as autofluorescent in microsphere protease counterscreen; compound autofluorescence counterscreen, microsphere flow cytometry; active compounds read high; actives 3.1% (n = 360,000); fluorescence intensity (concentration not given with the values);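 active means at least 3 SD above the mean of all compounds, about 16000 in these data; inconclusive means too few beads counted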;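 further: 100 nL of 1 mM stock went into each well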
# Mtb hypoxia rep – reduces hypoxia-regulated biosensor signal in M. tuberculosis; M. tuberculosis hypoxia-regulated fluorescent reporter, fluorescence; actives 0.1% (n = 300,000); fluorescence inhibition, % (concentration not given with the values); AID 1159583;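 active means 35 to 45% if threefold the growth effect, above 45% if 1.5-fold the growth effect; inactive means the rest, general growth blockers included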;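 further: wells of about 50 µL received 100 nL stock; 0% = vehicle wells and 100% = reference inhibitor wells; whole bacteria with a GFP reporter of the hypoxia response; strong numbers were not always called active; many hits fall short of the cut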
# Sa ugtP lethal – growth inhibition of S. aureus ugtP deletion strain; S. aureus RN4220 ugtP deletion, OD600 growth, 16 h; some inactives read as strong as hits; growth inhibition, % (no concentration beside the values); actives 0.54% (n = 330,000); AID 1259309;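 active means z-score under -3 and OD600 up to 0.15 on both plates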;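 further: plate controls were untreated wells for no effect and antibiotic for full effect; wells of about 80 µL received 100 nL stock; the first replicate is given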
# BJeLR viability – kills HRASV12-expressing BJeLR cells | BJeLR (HRASV12) viability, CellTiter-Glo ATP luminescence, 48 h; reference of the scale not given here | inhibition, % (test concentration not listed) | actives 0.17% (n = 300,000) | AID 1554;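 active means replicate mean above 50%; inconclusive means above 50% but judged a plate artefact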;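 further: 50 nL library stock added to about 25 µL; numbers are from one replicate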
# Sa RN4220 lethal – S. aureus RN4220 growth inhibition. OD600, 16 h. inhibition, % (concentration not given with the values). actives 0.33% (n = 330,000). AID 1259311;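 active means z-score of -3 or lower and OD600 up to 0.18 on both plates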;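 further: plate controls were untreated cells for no effect and reference antibiotic for full effect; stock transfer was 100 nL into about 80 µL; one replicate is shown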
# Mtb hypoxia rep growth – second read-out of Mtb hypoxia rep, no call of its own (marks repeat the call); growth inhibition, %; measured here: M. tuberculosis growth (absorbance);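 0% = vehicle and 100% = reference antibiotic; read after six days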
# Starred values were filed as active, the others as inactive; ? = inconclusive; / = no result given; & = joins results of further samples.
SMILES,PrP 5UTR inh,Bead autofluor,Mtb hypoxia rep,Mtb hypoxia rep growth,Sa ugtP lethal,BJeLR viability,Sa RN4220 lethal
CCOC(=O)Nc1ccc(C(=O)c2ccncc2)cc1,-19,3897,-8,-2,2,4,2.1
CCOC(=O)C(=O)Nc1cc(Cl)ccc1C,-24,10463,5,10,-2,-8,6.5
O=C(CSc1ncn[nH]1)c1ccco1,-6,4724,-5,6,3,4,-1.3
CN(CC(=O)N1CCC(C(N)=O)CC1)S(=O)(=O)c1ccc2ccccc2c1,-8,3097,6,-1,17,2,3.2
CC(=O)CC(=O)Nc1ccc(Cl)cn1,-13,2724,4,5,-1,2,5.8
COc1ccc2cc3c(N)nn(C(=O)Cc4ccccc4OC)c3nc2c1,3,4339,5,4,7,5,0.3
COC(=O)Cn1c(C)nc2c(sc3nc(C)cc(C)c32)c1=O,-43,5823,/,/,10,-2,1.4
Cc1onc(-c2ccccc2Cl)c1C(=O)NCc1ccc(N2CCCC2=O)cc1,-15,2989,3,7,-5,0,-15
CCn1ccnc1CNCc1ccc(OCC(O)CN(C)Cc2ccccc2)cc1 (stereo not given),-34,4558,3,4,1,7,1.5
O=P(C(=Nc1ccc(Cl)cc1)N1CCOCC1)(N1CCOCC1)N1CCOCC1,-13,4817,/,/,5,/,2.9
O=C(COC(=O)c1ccccn1)Nc1ccc(S(=O)(=O)N2CCOCC2)cc1,-16,3420,12,11,-2,-1,-8.2
CCN1C2=NCCCN2c2ccccc21,-6,2784,/,/,-2,-1,1.9
C=CC(COCc1ccccc1)N(Cc1ccc(OC)cc1)S(=O)(=O)c1ccccc1Br (stereo not given),-4,2857,3,1,8,8,3.1
COc1cccc(NC(=O)CN(C)C(C)C(=O)Nc2cc([N+](=O)[O-])ccc2Cl)c1 (stereo not given),-23,3860,10,0,5,0,-6.2
CC(NC(=S)NCCN1CCOCC1)C12CC3CC(CC(C3)C1)C2 (stereo not given),1,4384,4,2,-3,5,9.3
Cc1ccc(OCC(=O)N/N=C/c2ccncc2)cc1C,-19,4753,/,/,/,6,/
O=S(CCc1ccncc1)Cc1ccccc1 (stereo not given),-1,4992,/,/,4,-4,-9.8
CCOc1ccc(/C=C(\C)C(=O)c2c(C)cc(C)[nH]c2=O)cc1,-18,3560,4,0,12,-2,5.2
CC(=O)Nc1ccc(Nc2cc(C)nc3ccccc23)cc1,-8,3638,5,14,8,1,2.4
CCn1c2ccccc2c2nnc(SCC(=O)Nc3ccc4c(c3)OCO4)nc21,-24,9662,3,0,8,3,5.3
O=C(CNS(=O)(=O)c1cccs1)N1CCc2ccccc2C1,-23,2730,/,/,2,3,1.2
COc1ccc(OCC(O)CN2CCN(CC(O)COc3ccc(OC)cc3)CC2)cc1 (stereo not given),-5,3137,0,3,7,14,1.2
COc1ccc(/C=N/NC(=O)Cn2nnc3ccccc32)cc1OC,-15,2453,/,/,/,-26,/
COc1cccc(C=NNC(=O)c2cccc([N+](=O)[O-])c2)c1OS(=O)(=O)c1ccccc1,/,/,0,10,-6,/,1.1
COc1ccc(N2CC(NC(=O)NCCC(C)C)CC2=O)cc1 (stereo not given),-10,2031,-2,8,8,-16,0.0
C=C(C)c1cccc(C(C)(C)NC(=O)N2CCN(CC(N)=O)CC2)c1,-11,3428,/,/,2,7,2.6
COc1ccc(/C=N/NC(=O)CN2CCSCC2)c(OC)c1,-17,2528,/,/,/,-2,/
COc1ccc(N(C(=O)Cn2nnc(-c3ccc(F)cc3)n2)C(C)C(=O)NC2CCCC2)cc1 (stereo not given),-4,5356,-4,7,6,-2,0.9
Cc1ccccc1NC(=O)Cn1nnc2sc3c(c2c1=O)CC(C)(C)OC3,-4,4489,14,4,1,9,1.2
COc1ccc(C2SCC(=O)N2CC23CC4CC(CC(C4)C2)C3)cc1 (stereo not given),16,4460,13,15,-21,-17,3.9
COc1cc(C(=O)NCc2ccc3c(c2)OCO3)ccc1OCc1c(C)noc1C,-25,4882,/,/,4,1,2.4
CCCC(=O)Nc1ccc(C(=O)NN=C2CC(=O)CC(C)(C)C2)cc1,/,/,4,0,5,/,1.4
CCCCOC(=O)Nc1ccc(C(=O)OC)cc1,-20,21923*,-1,15,0,-4,5.8
Cc1ccccc1NC(=O)Cc1nc(CCl)cs1,-15,2454,-9,-5,5,-8,6.6
O=C(O)c1cccc(CSc2nnc(-c3ccc(Cl)cc3)o2)c1,1,3668,-1,6,-1,5,7.1
CCN1C/C(=N\S(=O)(=O)/N=C2\CN(CC)C(=O)N2CC)N(CC)C1=O,-14,5472,/,/,/,-7,/
Cc1ccccc1CN(c1ccc(C(=O)NCCC2=CCCCC2)cc1)S(C)(=O)=O,-18,9387,10,9,-3,14,1.1
O=C(NCCO)c1cccc2c1C(=O)c1ccccc1-2,-1,2125,-6,-2,3,3,-2.7
O=C(NCCCNC(=O)c1ccccn1)c1ccc(F)cc1,-10,6227,1,3,-6,0,0.4
COc1cc(/C=N/n2c(C)nc3ccccc3c2=O)cc(OC)c1O,-18,3607,/,/,/,6,/
Cc1ccc(-c2ccc(=O)n(CC(=O)NCCN(C)C)n2)cc1,-22,5751,2,4,33,-1,1.1
Clc1ccc(C=NNC(=Nc2ccccc2)c2ccccn2)c(Cl)c1,/,/,-1,1,42,/,-24
CNC(=O)c1nc(C)n(-c2cc(Cl)ccc2Cl)n1,-22,/,14,3,4,-4,3.0
CCOc1ccc(C(=O)N2CCN(c3ccccc3)CC2)cc1OCC,-24,2209,-5,14,0,2,11
COc1cc(C(=O)NC(C)Cc2ccccn2)ccc1OC1CCN(C(C)=O)CC1 (stereo not given),-15,5112,10,14,8,-2,1.9
C/C=C/c1ccc(OCC(O)CNCCc2ccc(OC)cc2)c(OC)c1 (stereo not given),-6,3557,1,7,7,19,-1.2
C(=NNc1ccc(-n2ccnc2)nn1)c1ccccc1,/,/,14,8,-11,/,6.1
O=C(NCC(=O)N(c1cccnc1)C(C(=O)NC1CCCC1)c1ccccc1)c1ccco1 (stereo not given),-26,4799,3,13,-5,-1,2.9
NCCNc1ccc([N+](=O)[O-])c(Sc2nc3ccccc3[nH]2)c1,-17,2238,4,0,4,7,0.9
COc1ccc(CC(=O)NNC(=O)CCc2ccccc2)cc1,-6,2562,1,-7,2,6,0.5
Cc1ccc(C(=O)N2CCN(c3cc(=O)[nH]nc3-c3ccccc3)CC2)cc1,-15,4032,2,9,-5,-15,3.2
O=C1CSC(c2ccccc2F)N1 (stereo not given),-14,3644,14,7,12,0,2.6
Cc1cc(C)n2nc(SCc3ccccc3C(=O)O)nc2n1,-26,4216,-8,6,-5,-1,-2.1
CCC(C(=O)Nc1cccc(OC)c1)n1nc(C)c2c(C)n(-c3ccccc3)nc2c1=O (stereo not given),-6,6752,13,10,14,-2,-3.6
Cc1nc2ccccn2c1C(=O)NC1CCCc2ccccc21 (stereo not given),60*,3197,7,9,12,10,8.2
O=C(CCCC(=O)OCC(=O)NC1CCCC1)Nc1ccccn1,-5,4354,4,-2,3,4,3.6
COc1cc(NS(=O)(=O)c2c(C)[nH]c(C)c2C(=O)N2CCCCC2)cc(OC)c1OC,-5,4483,8,-2,15,6,6.4
Cc1cc(C)c(S(=O)(=O)NCc2cn3ccccc3n2)c(C)c1,-11,4825,-1,-13,7,3,4.2
COc1ccc(/C(O)=C2\C(=O)C(=O)N(CCN(C)C)C2c2cccc(OC)c2OC)cc1Cl (stereo not given),-16,4126,/,/,2,4,1.7
O=C(NCCCCCCNC(=O)NCc1ccco1)NCc1ccco1,/,/,1,0,0,-1,5.7

# 3 compounds from above, ordered by molar mass, low to high.
SMILES,PrP 5UTR inh,Bead autofluor,Mtb hypoxia rep,Mtb hypoxia rep growth,Sa ugtP lethal,BJeLR viability,Sa RN4220 lethal
O=C1CSC(c2ccccc2F)N1 (stereo not given),-14,3644,14,7,12,0,2.6
Cc1cc(C)n2nc(SCc3ccccc3C(=O)O)nc2n1,-26,4216,-8,6,-5,-1,-2.1
Clc1ccc(C=NNC(=Nc2ccccc2)c2ccccn2)c(Cl)c1,/,/,-1,1,42,/,-24

# (further entries)
SMILES,PrP 5UTR inh,Bead autofluor,Mtb hypoxia rep,Mtb hypoxia rep growth,Sa ugtP lethal,BJeLR viability,Sa RN4220 lethal
Cc1ccc2c(c1)N(CCC(=O)NCCCN1CCCC1)C(=O)C(C)O2 (stereo not given),-3,4552,3,6,4,-11,5.8
CC(=O)c1ccc(S(=O)(=O)Oc2ccc(C(=O)O)cc2Cl)cc1,-17,3796,16,4,-5,/,7.0
Cn1ncc2c1ncn1nc(COc3ccc4ccccc4c3)nc21,-23,2972,9,5,-3,-3,-11
COc1ccc(CNC(=O)C[C@H]2C[C@H](C(=O)N3CCCCC3)[C@@]3(C)c4[nH]c5cc(-c6ccco6)ccc5c4CCN3C2=O)cc1OC,-2,3888,-10,7,3,/,-2.6
CCOC(=O)C1CCN(CC(C)(C)NS(=O)(=O)c2ccc(C)cc2)CC1,-5,4495,-2,-9,0,-1,-1.8
COc1ccc(C2C3=C(CC(C)(C)CC3=O)Oc3ncn(CCO)c(=N)c32)cc1OC (stereo not given),-12,15931,13,8,4,28,8.4
CC1(C)CC2=C(CO1)C(=S)NC(c1ccccc1)N2CC1CCCO1 (stereo not given),-8,3911,0,-10,3,-8,0.7
COc1ccc(NN=C(C#N)C(=O)NCCc2ccc(OC)c(OC)c2)cc1,/,/,6,4,4,/,2.3
Cc1ccc(NC(=O)CCC(=O)NNC(=O)/C=C/C(=O)O)c(C)c1,-37,2645,-5,-1,0,0,0.8
O=C(NCC1CC1)c1cc([N+](=O)[O-])cc([N+](=O)[O-])c1,-12,4263,/,/,8,5,9.4
CCCC(NC(=O)c1c(C)noc1C)C12CC3CC(CC(C3)C1)C2 (stereo not given),-36,4203,-13,-9,4,3,8.6
O=C(Nc1ccccc1)c1ccc(NCC2CCCO2)c(S(=O)(=O)N2CCOCC2)c1 (stereo not given),-19,3670,4,7,7,-3,3.4
CCOc1ccccc1NC(=O)COC(=O)CCOc1cc(C)ccc1C,-7,?,4,1,3,-9,3.7
CCOc1ccc(S(=O)(=O)NN=C(C)c2ccc3c(c2)OCO3)cc1,/,/,13,2,8,/,-0.5
CC(NC(=O)C12CC3CC(C)(CC(C)(C3)C1)C2)c1ccncc1 (stereo not given),-22,3543,8,7,6,8,4.9
O=C(O)c1ccc(N=NN2CCCCCC2)cc1,-107,9416,4,6,4,-4,2.1
Nc1c(N(CCO)C(=O)C2CCCC2)c(=O)[nH]c(=O)n1Cc1ccccc1,-16,?,-4,0,2,/,0.0
CC(C)CN(C(=O)CCc1ccccc1)c1c(N)n(CC(C)C)c(=O)[nH]c1=O,-23,2042,4,0,9,-8,2.9
C#Cc1ccc(C2C=C(C(=O)O)OC(OCCCCO)C2)cc1 (stereo not given),/,/,4&4,-2&-4,4&-1,/,9.0&5.6
O=[N+]([O-])c1cccc(-c2nnnn2-c2cccc(F)c2)c1,-28,6196,18,8,8,0,3.4

# One compound at a time, as listed above. Order of screens: PrP 5UTR inh, Bead autofluor, Mtb hypoxia rep, Mtb hypoxia rep growth, Sa ugtP lethal, BJeLR viability, Sa RN4220 lethal
# `CC(NC(=O)C12CC3CC(C)(CC(C)(C3)C1)C2)c1ccncc1` (stereo not given) as listed: -22, 3543, 8, 7, 6, 8, 4.9
# `Cc1ccc2c(c1)N(CCC(=O)NCCCN1CCCC1)C(=O)C(C)O2` (stereo not given) as listed: -3, 4552, 3, 6, 4, -11, 5.8

# Going on with the list.
SMILES,PrP 5UTR inh,Bead autofluor,Mtb hypoxia rep,Mtb hypoxia rep growth,Sa ugtP lethal,BJeLR viability,Sa RN4220 lethal
CC/C(O)=C(\C#N)c1nnc2n1CCCCC2,-21,20206*,2,0,7,-7,1.5
COc1ccc(C(C)=NNc2ccc([N+](=O)[O-])cc2S(=O)(=O)Nc2ccccc2C(=O)O)c(OC)c1,-18,3959,6,3,63,/,8.3
COc1ccc(NC(=O)CSc2nnnn2C2CC2)cc1S(=O)(=O)N1CCOCC1,-9,2708,5,0,3,/,6.7
COCCn1nnnc1CN1CCN(c2cccc(C(F)(F)F)c2)CC1,-21,2378,/,/,3,-3,-2.2
N#C/C(=C\c1ccc(-c2ccc([N+](=O)[O-])cc2Br)o1)C(=O)N1CCN(c2ccccc2)CC1,-18,2489,-8,11,-13,-3,1.2
